HIV Env fusion: HIV envelope-mediated fusion inhibition. 360,000 compounds, 1.1% hits. HeLa-JRFL Env/CEM21 cell fusion, luciferase. inhibition, % at 12.3 µM;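 active means mean replicate inhibition score of at least 50 and every replicate individually at or above 50; inconclusive means only one of the two criteria met; inactive means mean below 50 and not all replicates reaching 50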;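 further: 0% = plate neutral controls and 100% = maraviroc near 300 nM; one replicate is shown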
eIF4H FP inh: inhibitors of RNA binding by human eIF4H. Q15056. inhibition, % at 35 µM. AID 2012. 290,000 compounds, 0.94% hits. eIF4H fluorescence polarization binding assay;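 active means 50% or more with normal probe brightness, or confirmed in later tests; inconclusive means above 50% with abnormal brightness, or retests that disagree; inactive means below 50% or failed in later tests; about a fifth of its hits are not listed in these tables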;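 further: calls also rest on retests at 20 µM and on dose response follow-up; 0% = protein and probe with vehicle and 100% = probe without protein; strong numbers were not always called active; many hits fall short of the cut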
Rce1 inhib: yeast Ras-converting enzyme inhibition; Q03530; yeast membranes, quenched prenylated peptide cleavage fluorescence; calls only; 290,000 compounds, 0.27% hits; AID 2563;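 active means fall in fluorescence gain of 50% or more versus controls, with final raw signal at or below 3038400; inconclusive means same 50% fall but final raw signal above 3038400; inactive means fall in fluorescence gain under 50%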;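 further: plate controls were neutral control wells for no effect and wells lacking membranes for full effect; tested at 10 µM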
Target sequence (Q03530 whole entry, looked up): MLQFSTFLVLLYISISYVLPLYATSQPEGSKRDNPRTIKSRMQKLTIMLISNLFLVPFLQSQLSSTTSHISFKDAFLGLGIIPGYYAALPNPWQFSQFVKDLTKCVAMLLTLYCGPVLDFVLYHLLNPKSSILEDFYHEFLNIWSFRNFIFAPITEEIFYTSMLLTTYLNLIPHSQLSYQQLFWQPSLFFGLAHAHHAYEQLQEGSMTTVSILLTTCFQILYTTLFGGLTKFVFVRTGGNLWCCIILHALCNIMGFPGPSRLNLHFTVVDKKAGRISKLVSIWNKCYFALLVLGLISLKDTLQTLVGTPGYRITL
MT1-MMP act inh: MT1-MMP (human) activation inhibition; 360,000 compounds, 0.061% hits; AID 651647; HT1080 RFP-PRO-GFP cells, GFP/RFP ratio fluorescence, overnight; percent of plate control window, DMSO zero; GFP/RFP ratio change, % at 20 µM;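 active means GFP/RFP ratio change of at least 30% with cell ATP level not reduced by more than half and red fluorescence within 50% of control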; further: strong numbers were not always called active
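Test system: HT1080 RFP-PRO-GFP cells; Benchmarks: DMSO and RFP-L50D-GFP cell wells; Timing: cells overnight before dosing, compound overnight, 37 °C, 5% CO2; Compound: one 20 µM compound dose with 1% DMSO; Read-out: GFP/RFP fluorescence ratio.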
CSC inhib: blocks cancer stem cells; cancer stem cell-like cells viability, luminescence; inhibition, % at 7.5 µM; 300,000 compounds, 1.1% hits; AID 2717;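 active means mean at 75% or more and at least half the replicates too; inconclusive means mean and replicates disagree; tested in HMLE shEcad cells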;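 further: 0% = median of negative and 100% = median of positive control wells; the first replicate is given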
UUG fidelity: yeast start codon fidelity modulation | activity score, % at 18.7 µM | 350,000 compounds, 0.13% hits | AID 602363 | S. cerevisiae UUG-firefly luciferase reporter, luminescence/redox ratio;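 active means replicate mean at a twofold rise or more, about +100% in these data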;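 further: firefly luciferase made from a UUG start codon reports start codon fidelity; reporter light over untreated wells divided by growth signal over untreated wells; some hits fall short of that in this replicate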
PABP FP inh: PABP-poly(A) binding inhibition | PABP-poly(A) RNA binding, fluorescence polarization | inhibition, % at 35 µM | 290,000 compounds, 1% hits | P11940 | AID 2014;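 active means 50% or more with normal probe brightness, or confirmed in later tests; inconclusive means above 50% with abnormal brightness, or retests that disagree; inactive means below 50% or failed in later tests; about a fifth of its hits are not listed in these tables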;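 further: calls also rest on retests at 20 µM and on dose response follow-up; controls were probe without protein and protein plus probe with vehicle; some compounds called inactive have numbers as strong as hits; many hits fall short of the cut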
Target sequence (P11940 whole entry, looked up): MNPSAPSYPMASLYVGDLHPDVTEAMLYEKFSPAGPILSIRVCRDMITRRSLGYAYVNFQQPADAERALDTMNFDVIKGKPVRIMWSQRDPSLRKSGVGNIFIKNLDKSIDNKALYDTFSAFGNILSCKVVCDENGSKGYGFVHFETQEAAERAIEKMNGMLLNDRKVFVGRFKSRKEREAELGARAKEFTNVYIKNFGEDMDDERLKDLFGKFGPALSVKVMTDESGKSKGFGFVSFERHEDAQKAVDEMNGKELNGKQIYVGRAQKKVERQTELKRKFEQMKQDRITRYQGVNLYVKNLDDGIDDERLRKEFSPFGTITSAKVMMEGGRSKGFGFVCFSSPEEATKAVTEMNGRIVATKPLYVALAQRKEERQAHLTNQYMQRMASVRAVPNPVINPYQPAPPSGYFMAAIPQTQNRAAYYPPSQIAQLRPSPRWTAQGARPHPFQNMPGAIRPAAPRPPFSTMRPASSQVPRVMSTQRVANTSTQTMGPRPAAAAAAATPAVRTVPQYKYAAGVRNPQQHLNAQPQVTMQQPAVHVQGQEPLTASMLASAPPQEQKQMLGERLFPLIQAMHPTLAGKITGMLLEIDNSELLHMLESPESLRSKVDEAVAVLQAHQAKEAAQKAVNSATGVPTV
eIF4H FP inh retest: second read-out of eIF4H FP inh, no call of its own (marks repeat the call); inhibition, %; compound at 20 µM; confirmation average;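 mean of two retest wells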
PABP FP inh retest: second read-out of PABP FP inh, no call of its own (marks repeat the call); inhibition, %; compound at 20 µM; confirmation repeats;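 mean of two retest wells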
MT1-MMP act inh RFP: recorded beside MT1-MMP act inh, whose call it bears; RFP signal change, %; measured here: RFP expression control read;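 0 = vehicle wells; hits needed this value within 50% of zero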
* = called active by the depositor; i = inactive; ? = inconclusive; / = no result given; & = joins results of further samples.

SMILES	HIV Env fusion	eIF4H FP inh	Rce1 inhib	MT1-MMP act inh	MT1-MMP act inh RFP	CSC inhib	UUG fidelity	PABP FP inh	others
CCOC(=O)CSC1=N/C(=C\c2cc(OC)c(OC)c(OC)c2)C(=O)N1C	-5	-2	i	6	-2	3	/	0
CC(C)(C)CNc1cc(N2CCOCC2)ccc1[N+](=O)[O-]	19	6	i	3	-1	-4	7	10
C[C@@H]1CN([C@H](C)CO)C(=O)CCCn2nncc2CO[C@H]1CN(C)S(=O)(=O)c1cccs1	9	/	/	2	3	/	-6&-17	/
CC(C)CC(=O)Nc1cc(NC(=O)CC(C)C)cc(C(=O)NC(C)(C)C)c1	/	0	i	-6	-8	-6	-9	-1
Cc1cc(SC(C)C(=O)Nc2c(C)n(C)n(-c3ccccc3)c2=O)nc2ccccc12 (stereo unspecified)	/	7	i	-3	-1	-5	/	-9
Cn1cccc1Cc1nnc(SCC(=O)NC2CCCCC2)n1CCc1ccccc1	10	-7	i	-2	-2	-12	-8	52	eIF4H FP inh retest=20;PABP FP inh retest=26
CCC(C)(C)n1nnnc1C(c1ccc(C)cc1)N1CCC(C)CC1 (stereo unspecified)	?	0	i	-5	-5	-7	-14	-2
CCc1cc2c(CN3CCN(Cc4ccccc4)CC3)cc(=O)oc2cc1O	20	-6	i	-9	-8	5	11	-6
O=C(Cn1nc(Cc2ccncc2)c2ccccc2c1=O)N1CCN(C(=O)c2ccco2)CC1	-14	17	i	-2	2	-16	-7	-12
CCCc1ccc(S(=O)(=O)Nc2ccc(C)c(NS(C)(=O)=O)c2)cc1	-7	-2	i	1	-3	-3	-11	-7
CCCC(=O)N/C(N)=N/c1nc(C)c2ccccc2n1	-1	0	i	-1	-3	4	-16	-5
O=C(Nc1ccc(S(=O)(=O)Nc2ncccn2)cc1)C12CC3CC(CC(Cl)(C3)C1)C2	11	/	/	-6	5	-17	1	/
CCc1ccc(NC(=O)C2(C)Cc3ccccc3C(=O)O2)cc1 (stereo unspecified)	-3	-9	i	-5	-5	-4	/	6
Cc1ccc(-c2cc(C(=O)Nc3nccs3)c3ccccc3n2)o1	0	18	i	-1	1	3	-1	-10
Nc1c(NCc2ccccc2)c(=O)c1=O	-5	9	i	1	1	-3	-4	-8
Cc1cc(C(=O)COC(=O)c2ccc[nH]c2=O)c(C)n1C1CC1	-29	10	i	-1	5	-11	/	-13
CCc1ccc(N2CC(C(=O)Nc3ccc(S(=O)(=O)Nc4nccs4)cc3)CC2=O)cc1 (stereo unspecified)	-4	-2	i	1	1	-2	-4	0
O=C1CCN(Cc2nc(-c3ccc(Cl)cc3)no2)CCN1	3	-9	i	0	-12	35	-13	-2
O=C(CSc1nc2ccccc2c(=O)n1CCCO)NC1CC1	/	/	/	-1	2	-8	-5	/
O=C(COC(=O)c1n[nH]c(=O)c2ccccc12)c1ccccc1	/	5	i	3	1	-8	2	21
FC(F)Oc1ccc(/C=N/N2CCCCC2)c(OC(F)F)c1	/	-5	i	/	/	-4	/	5
O=C(C[n+]1cc(Br)cc2ccccc21)c1ccccc1	8	?	i	-26	-4	11	-16	28
C=CCN1C(=NC(=O)CCC(=O)O)SC2CS(=O)(=O)CC21 (stereo unspecified)	/	-3	i	-1	2	2	4	0
COc1ccc(C=NNC(=O)c2ccccc2NS(=O)(=O)c2cccs2)cc1O	7	/	/	2	2	-8	-13	/
COc1ccccc1NC1=C(Cl)C(=O)OC1OC(=O)c1ccco1 (stereo unspecified)	-5	-4	i	-1	1	10	/	-3

Of the compounds above, three have a Cl atom:
SMILES	HIV Env fusion	eIF4H FP inh	Rce1 inhib	MT1-MMP act inh	MT1-MMP act inh RFP	CSC inhib	UUG fidelity	PABP FP inh	others
O=C(Nc1ccc(S(=O)(=O)Nc2ncccn2)cc1)C12CC3CC(CC(Cl)(C3)C1)C2	11	/	/	-6	5	-17	1	/
O=C1CCN(Cc2nc(-c3ccc(Cl)cc3)no2)CCN1	3	-9	i	0	-12	35	-13	-2
COc1ccccc1NC1=C(Cl)C(=O)OC1OC(=O)c1ccco1 (stereo unspecified)	-5	-4	i	-1	1	10	/	-3

(more compounds)
SMILES	HIV Env fusion	eIF4H FP inh	Rce1 inhib	MT1-MMP act inh	MT1-MMP act inh RFP	CSC inhib	UUG fidelity	PABP FP inh	others
CNC(=O)CN(c1ccc(C23CC4CC(CC(C4)C2)C3)cc1)S(C)(=O)=O	28	2	i	7	-1	51	/	-1
O=c1c2cc([N+](=O)[O-])ccc2nc2n1CCC2	-10	-3	i	0	2	-7	-10	-1
Cc1ccc(OCc2nc(-c3ccccn3)no2)c(Br)c1	-280	3	i	4	4	17	-64	-5
CCN(CCn1cccn1)C(=O)CCc1nnc(CCc2ccccc2OC)o1	1	9	i	-1	3	-9	-29	4
CCn1ccnc1CN(C)C(=O)CC1C(=O)NCCN1Cc1c(F)cccc1Cl (stereo unspecified)	-4	11	i	-3	3	-4	-13	3
Cc1ccc(NC(=O)CSc2cccc[n+]2[O-])c([N+](=O)[O-])c1	-27	-16	i	-7	-3	-22	/	0
Cc1c(-c2nc(N)nc(Nc3ccc(F)cc3)n2)oc2ccccc12	/	-10	i	-5	-9	21	-3	-4
O=C(NCc1ccccc1)c1cc(C2CCCCN2C(=O)CCCc2ccccc2)on1 (stereo unspecified)	6	/	/	-2	-6	/	-7	/
COc1ccc(NC(=O)CSc2nnc(CC(=O)Nc3ccc(F)cc3)n2C)cc1	-21	-9	i	3	4	-7	/	-8
CCCCCCCNC1=CC(=O)CC(c2ccco2)C1 (stereo unspecified)	-71	93*	i	-2	1	19	-15	84*
O=C(COC(=O)c1ccc(Cl)cc1Cl)Nc1cccc(S(=O)(=O)NC2=NCCC2)c1	/	/	/	7	0	-10	-15	/
CN(Cc1ccccc1)C(=O)CCCn1c(=O)c2cccn2c2cccnc21	3	8	i	-2	4	-18	3	-2
COc1ccccc1N(CC(=O)NCCc1ccccc1)S(C)(=O)=O	3	-7	i	2	3	-4	2	3
Cc1ccc(NC(=O)C2CCCN(S(=O)(=O)c3cnc[nH]3)C2)cc1F (stereo unspecified)	-36	-2	/	-2	1	-21	2	-5
O=C(NCCCN1CCOCC1)C1CC(=O)N(CCc2ccccc2)C1 (stereo unspecified)	/	-3	i	-1	7	-7	-13	-16
Cc1ccc(-c2[nH]ncc2/C=C(\C#N)C(=O)NC2CCCCC2)cc1	8	-9	i	-10	-6	/	-9	4
CN=C1c2cc3cc(OC)ccc3n2CCN1C	-36	0	i	-3	-1	-3	-5	-3
COc1cccc(/C=C2\SC(=S)N(CCCC(=O)N3CCCCC3CCO)C2=O)c1 (stereo unspecified)	16	-8	i	-4	-6	23	-35	-3
O=C(Nc1ccccn1)Nc1ccccc1[N+](=O)[O-]	-19	-9	i	-3	1	-2	-14	-2
CC(=O)c1c(O)c(C)c(O)c2c1OC1=Cc3c(c(C)nn3C)C(=O)C12C (stereo unspecified)	-31	/	/	-1	-8	/	-4	/
COc1ccc(CNS(=O)(=O)c2c(C)[nH]c(C)c2C(=O)N2CCCCC2)cc1	3	4	i	0	6	-14	-6	-4
CC(C)OC(=O)c1nnc(-c2ccccc2)nc1OC(C)C	/	-4	i	-6	-5	-12	-7	-5
Cn1cnnc1Sc1cc(N2CCN(S(=O)(=O)c3ccc(Cl)c(Cl)c3)CC2)ccc1[N+](=O)[O-]	/	-8	i	-4	-11	-9	-20	4
CCOC(=O)c1cnc2[nH]c3ccccc3n2c1=O	-21	-10	?	2	6	-10	/	-4
CSc1ccccc1NC(=O)CN1CC(C)OC(C)C1 (stereo unspecified)	10	-2	i	0	2	-3	/	22
Following part
SMILES	HIV Env fusion	eIF4H FP inh	Rce1 inhib	MT1-MMP act inh	MT1-MMP act inh RFP	CSC inhib	UUG fidelity	PABP FP inh	others
Cc1cc2c(=O)n(C)c(SCC(=O)c3cc4ccccc4o3)nc2s1	-25	-8	i	5	0	-1	6	-9
O=C(O)/C=C/C(=O)OC1CC2CCC1C2 (stereo unspecified)	0	-2	i	-1	6	-2	/	-1
Cc1cccc(NC2=C(Cl)C(=O)OC2NC(=O)c2ccccc2)c1 (stereo unspecified)	/	-6	i	3	-2	3	-17	-2
CC1CN(C(=O)c2ccccc2)c2ccccc2NC1=O (stereo unspecified)	7	-13	i	5	10	-12	-2	-7
CC(C)N(C(=O)CN1CCN(S(=O)(=O)c2ccc(Br)s2)CC1)C(C)C	3	/	/	7	-1	-4	36	/
COCCN1CCn2c(nc3cc([N+](=O)[O-])ccc32)C1	17	-3	i	0	1	-6	/	13
Cc1ccc(/C=N/NC(=O)c2cccnc2)o1	23	4	i	4	4	-7	/	-10
O=C(COC(=O)Cc1cn2ccsc2n1)NCc1ccc2c(c1)OCO2	-27	-8	i	0	10	-7	/	3
CCN(CC)S(=O)(=O)c1cc(NC(=O)CNc2c(C)n(C)n(-c3ccccc3)c2=O)ccc1C	-2	-8	i	-4	2	-12	11	-4
CCCCn1c(CCl)nc2cc(S(=O)(=O)N3CCOCC3)ccc21	/	/	/	0	3	-12	-11	/
CCCCN1C(=O)Cc2c1nc(N)c1c(N)nc(N(CCC)CCC)c(C#N)c21	-5	10	/	3	-6	5	-4	13
O=C(NCCCn1ccnc1)c1noc2c1CCCC2	1	-9	i	-2	0	-4	-4	-1
CC1(C)Cc2c(sc3[nH]c(=O)n(CC(=O)NCC4CCCO4)c(=O)c23)CO1 (stereo unspecified)	5	0	i	3	4	-5	-12	-2
CN1CCN(c2ccccc2NC(=O)Cc2cn(C)c3ccccc23)CC1	-48	-4	i	-7	-1	4	-19	0
Cc1ccc(Sc2nnc(Cc3ccccc3)c3ccccc23)cc1	-4	-16	/	4	2	31	-15	-4
C=CCn1c(O)c(N=NC(=O)CNC(=O)c2ccco2)c2ccccc21	-9	-3	i	-1	-5	26	/	-5
O=C(NCCCN1CCOCC1)C(C(=O)c1ccccc1)n1ccccc1=O (stereo unspecified)	-48	-1	/	3	2	-12	-7	-6
CC(=O)Oc1ccc(N2C(=O)[C@@H]3[C@H](C2=O)[C@H]2c4ccccc4C=NN2[C@@H]3C(C)=O)cc1	-10	-5	i	0	1	-5	/	10
Cc1noc(C)c1C(=O)Nc1sccc1C(N)=O	-4	/	/	0	4	0	1	/
Cc1ccc(S(=O)(=O)NCC2NCCc3ccccc32)cc1 (stereo unspecified)	13	2	i	-1	2	-11	-14	6
CSc1ccc(C2CC(=O)Nc3nc(SC)[nH]c(=O)c32)cc1 (stereo unspecified)	3	-2	i	2	3	-12	/	-14
CCC(C)(C)n1nnnc1C(c1ccc(O)c(OC)c1)N1CCN(c2nc3ccccc3s2)CC1 (stereo unspecified)	/	2	i	1	-1	-12	3	-5
Cc1ccc(CNC(=O)Nc2cccs2)cc1	/	10	i	2	7	6	-23	4
COc1cc(C2OC(c3cc(OC)c(OC)c(OC)c3)C(C)C2C)cc(OC)c1OC (stereo unspecified)	/	-2	i	7	-3	-9	-6	10
Cn1cccc1C(=O)NC(=O)CSc1nc2ccccc2s1	4	0	i	1	6	-8	0	8
Cc1ccc(C(=O)c2cc(C)sc2N)cc1	-26	-8	i	1	-1	-8	/	-2
Cc1ccc(NC(=O)C(=O)NCc2ccc(/C=N/NC(=O)c3c(C)nc4cc(C)ccn34)o2)cc1	10	-11	i	/	/	0	/	-3
CC(C)C[C@H](NC(=O)OC(C)(C)C)C(=O)N[C@@H](CO)[C@H](O)[C@@H]1C[C@@H]1C(=O)NC1CC1	?	-9	i	2	3	-8	-12	-4
CN(C)Cc1nc2ccccc2c(=O)n1Cc1nc(C(C)(C)C)cs1	/	-7	/	0	2	3	-8	4
